Vif A3G: inhibitors of Vif binding to APOBEC3G peptide, primary screen, biochemical, TR-FRET, GST-Vif 1-94, biotin-A3G peptide, dose response retest (AID 1117319). inhibition, %, or IC50 in µM where a hit was titrated. TR-FRET GST-Vif / biotin-A3G peptide binding; higher % means a stronger effect; test concentration not given here; strong numbers were not always called active. 0.57% of 260,000 active;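 active = above the screen mean plus three standard deviations and confirmed in dose response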;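 note: Vif residues 1-94 fused to GST binding biotinylated APOBEC3G peptide 110-148; 0% = full assay without inhibitor and 100% = GST in place of GST-Vif; retest series ran down from 100 µM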
rRNA inh HTS: reduced GFP signal of wild-type E. coli, primary screen, bacterial rRNA inhibitor project, GFP/RFP fluorescence, OD600, single point; GFP signal change (wild-type ribosome), % (concentration not given with the values); AID 720706, 2013; 1.6% of 350,000 active; E. coli WT GFP vs humanized-ribosome RFP mutants, 24 h; stronger effect = lower value; DMSO median 0, no signal -100;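 active = significant combined selectivity score with lowered wild-type GFP, culture density cut under 30%, mutant RFP and density less affected; inactive = any of these conditions unmet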; note: one replicate is shown; some compounds called inactive have numbers as strong as hits
AF4-AF9 inh: inhibitors of AF4 peptide binding to AF9, primary screen, biochemical, AlphaScreen, biotin-AF4 peptide, FLAG-AF9, single point. Protein AF-9 (Homo sapiens), P42568. inhibition, % at 10 µM. 0.47% of 350,000 active. AID 651704, 2012;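 active = every replicate reaching a set inhibition limit, whatever the replicate mean, cut at about 25% in these data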;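 note: 0% = plate neutral control median and 100% = total signal loss; the record names both 10 and 1 µM as test concentration; the first replicate is given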
Target sequence (P42568 whole entry, looked up): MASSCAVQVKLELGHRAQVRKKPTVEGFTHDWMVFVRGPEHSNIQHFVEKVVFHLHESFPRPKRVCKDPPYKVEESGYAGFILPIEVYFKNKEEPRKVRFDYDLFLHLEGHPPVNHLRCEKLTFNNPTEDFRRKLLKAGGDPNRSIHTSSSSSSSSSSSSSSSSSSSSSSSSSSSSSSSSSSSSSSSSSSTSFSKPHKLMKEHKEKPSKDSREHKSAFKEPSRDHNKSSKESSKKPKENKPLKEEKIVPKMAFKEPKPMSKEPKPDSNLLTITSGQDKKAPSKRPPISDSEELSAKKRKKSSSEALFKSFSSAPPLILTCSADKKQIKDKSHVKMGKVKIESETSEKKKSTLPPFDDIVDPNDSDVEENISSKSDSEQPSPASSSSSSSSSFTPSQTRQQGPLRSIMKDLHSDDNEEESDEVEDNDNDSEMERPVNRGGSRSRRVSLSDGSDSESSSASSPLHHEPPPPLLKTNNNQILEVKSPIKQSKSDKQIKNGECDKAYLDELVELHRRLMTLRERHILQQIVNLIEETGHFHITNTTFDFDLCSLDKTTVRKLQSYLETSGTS
rRNA inh HTS OD600: recorded beside rRNA inh HTS, whose call it bears; OD600 change, %; measured here: OD600 growth;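 optical density of the mix in the first replicate; 0 = DMSO median and -100 = no signal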
rRNA inh HTS RFP: second read-out of rRNA inh HTS, no call of its own (marks repeat the call); RFP signal change, %; measured here: RFP humanized mutant strains;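 first replicate; 0 = DMSO median and -100 = no signal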
The depositor's hits bear a star; & = joins results of further samples. A portion of the library, so the mix of outcomes need not match the whole.

Screening O=c1c2ccc(F)cc2sn1-c1ccccc1 returned Vif A3G 7.6%, rRNA inh HTS -44.5, AF4-AF9 inh -14.3, rRNA inh HTS OD600 -69.2 and rRNA inh HTS RFP -18.0.
`COCCN(C(=O)COC(=O)CSc1ccc(Cl)cc1)c1c(N)n(CC(C)C)c(=O)[nH]c1=O` gave Vif A3G -4.6%, rRNA inh HTS 5.9, AF4-AF9 inh -1.7, rRNA inh HTS OD600 9.8 and rRNA inh HTS RFP 1.5.
O=C(CSc1nnc(COc2ccc(Cl)cc2)n1Cc1ccco1)N1CCNC1=O was read as Vif A3G -2.0%, rRNA inh HTS -2.4, AF4-AF9 inh 5.2, rRNA inh HTS OD600 8.9 and rRNA inh HTS RFP 0.0.
For NC(=O)c1ncn([C@@H]2O[C@H](CNCc3cnc(N4CCOCC4)s3)[C@@H](O)[C@H]2O)n1 the results were Vif A3G 5.4%, rRNA inh HTS 18.5, AF4-AF9 inh -1.4, rRNA inh HTS OD600 10.1 and rRNA inh HTS RFP -1.4.
O=C(Cc1ccccc1)NCCCNC(=O)Cc1ccccc1 was read as Vif A3G -6.0%, rRNA inh HTS 5.2, AF4-AF9 inh -1.0, rRNA inh HTS OD600 11.4 and rRNA inh HTS RFP -4.1.
Cc1[nH]c(=O)[nH]c(=O)c1C=CC(=O)NC(CO)CS(=O)Cc1ccccc1 (configuration not stated) was read as Vif A3G -3.1%, rRNA inh HTS 4.3, AF4-AF9 inh -2.2, rRNA inh HTS OD600 -4.2 and rRNA inh HTS RFP 1.8.
COc1cc(OC)c(OC)cc1/C=C/c1ccnc2ccccc12 was read as Vif A3G 2.5%, rRNA inh HTS -28.8, AF4-AF9 inh 19.5, rRNA inh HTS OD600 -48.5 and rRNA inh HTS RFP -9.9.
For CC(C)(C)OC(=O)N1CCC(C(=O)Nc2cccc(C(=O)NCCCCc3ccccc3)c2)CC1 the results were Vif A3G -5.7%, rRNA inh HTS 12.2, AF4-AF9 inh -5.2, rRNA inh HTS OD600 10.8 and rRNA inh HTS RFP 2.3.
COc1cc2c(c(OC)c1OC)C(c1ccccc1C)CC(=O)O2 (configuration not stated) was read as Vif A3G -5.0%, rRNA inh HTS -13.9, AF4-AF9 inh -2.7, rRNA inh HTS OD600 -7.7 and rRNA inh HTS RFP -0.1.
For CCOc1ccc(CN(C)CC(=O)Nc2ccccc2C(=O)NC2CC2)cc1 the results were Vif A3G 1.3%, rRNA inh HTS -7.2, AF4-AF9 inh 0.1, rRNA inh HTS OD600 -5.1 and rRNA inh HTS RFP 1.1.
Screening CC1(C(=O)NNC(=O)c2cccc([N+](=O)[O-])c2)CC1Br (configuration not stated) returned Vif A3G 1.9%, rRNA inh HTS 8.6, AF4-AF9 inh -2.7, rRNA inh HTS OD600 19.9 and rRNA inh HTS RFP -1.7.
`O=C(CCCCl)N1CCc2[nH]c3ccccc3c2C1` gave Vif A3G 5.0%, rRNA inh HTS 12.6, AF4-AF9 inh -3.1, rRNA inh HTS OD600 6.5 and rRNA inh HTS RFP -2.0.
O=C(NC1CC1)c1cccc(NC(=O)c2cc(S(=O)(=O)N3CCOCC3)ccc2Cl)c1 was read as Vif A3G -2.3%, rRNA inh HTS -0.8, AF4-AF9 inh 3.3, rRNA inh HTS OD600 -4.6 and rRNA inh HTS RFP -2.5.
CC(C)(C)OC(=O)N(CCc1ccccc1)Cc1ccc(OCc2cccc(NC(=O)C3CCCC3)c2)cc1 was read as Vif A3G -6.7%, rRNA inh HTS 6.8, AF4-AF9 inh -0.8, rRNA inh HTS OD600 6.6 and rRNA inh HTS RFP -1.2.
`Cc1cc(C(=O)Cn2cc([N+](=O)[O-])ccc2=O)c(C)n1CC1CCCO1` (configuration not stated) gave Vif A3G -1.1%, rRNA inh HTS 4.3, AF4-AF9 inh 2.3, rRNA inh HTS OD600 8.4 and rRNA inh HTS RFP 0.9.
O=C1NC[C@H](Cc2ccccc2)N(CC2CCN(CCC34CC5CC(CC(C5)C3)C4)CC2)C1=O was read as Vif A3G -5.8%, rRNA inh HTS -3.2, AF4-AF9 inh 3.1, rRNA inh HTS OD600 1.2 and rRNA inh HTS RFP -0.4.
Screening c1ccc2c(c1)COc1c3cc4c(cc3nn1-2)OCO4 returned Vif A3G 0.6%, rRNA inh HTS -15.9, AF4-AF9 inh 7.6, rRNA inh HTS OD600 -31.2 and rRNA inh HTS RFP -8.1.
Screening O=C1c2cccc(NCCNCCO)c2C(=O)c2cccc(NCCNCCO)c21 returned Vif A3G -16.1%, rRNA inh HTS -14.1, AF4-AF9 inh 46.0*, rRNA inh HTS OD600 1.6 and rRNA inh HTS RFP 36.1.
For COC1OC2COC(c3ccccc3)OC2C(O)C1N (configuration not stated) the results were Vif A3G -1.3%, rRNA inh HTS 8.4, AF4-AF9 inh 0.3, rRNA inh HTS OD600 14.1 and rRNA inh HTS RFP -2.0.
Cc1ccc(NCCN(C)C)c2c(=O)c3cc(O)ccc3sc12 was read as Vif A3G -1.1%, rRNA inh HTS -56.2, AF4-AF9 inh 39.2*, rRNA inh HTS OD600 -80.2 and rRNA inh HTS RFP -21.1.
`O=C1c2ccccc2C(=O)N1c1nccs1` gave Vif A3G 2.2%, rRNA inh HTS 11.7, AF4-AF9 inh 1.1, rRNA inh HTS OD600 26.6 and rRNA inh HTS RFP -1.1.
Screening Cc1ccc([C@@H]2C[C@H]3[C@@H](CN2S(=O)(=O)c2ccc(C)cc2)C(=O)C[C@@H](c2ccc(Cl)cc2)N3S(=O)(=O)c2ccccc2C)cc1 returned Vif A3G 0.2%, rRNA inh HTS 22.6, AF4-AF9 inh 1.1, rRNA inh HTS OD600 18.8 and rRNA inh HTS RFP 2.0.
For CCn1cc(C(=O)N2CCCC(C(=O)c3cccc(C(F)(F)F)c3)C2)cn1 (configuration not stated) the results were Vif A3G -3.9%, rRNA inh HTS -0.3, AF4-AF9 inh 0.7, rRNA inh HTS OD600 -0.4 and rRNA inh HTS RFP 3.3.
CN(C(=O)c1cccc(NC(=O)Cc2ccc(NC(=O)C3CCCN(C(=O)C4CC4)C3)cc2)c1)C1CC1 (configuration not stated) was read as Vif A3G -9.4%, rRNA inh HTS 10.9, AF4-AF9 inh 0.7, rRNA inh HTS OD600 4.0 and rRNA inh HTS RFP -0.8.
For COc1cc(C(=O)N2CCOC23CCN(Cc2ccccc2)CC3)cc(OC)c1OC the results were Vif A3G -3.0%, rRNA inh HTS 4.1, AF4-AF9 inh -2.6, rRNA inh HTS OD600 7.8 and rRNA inh HTS RFP 2.1.
For C=C(C1=CCN(S(=O)(=O)C(C)(C)C)[C@H]1CCO)c1ccccc1 the results were Vif A3G -0.1%, rRNA inh HTS 3.2, AF4-AF9 inh -1.5, rRNA inh HTS OD600 -1.0 and rRNA inh HTS RFP 3.0.
For N#C/C(=C/C1=C(N2CCOCC2)C(=C/c2ccc(Cl)cc2Cl)/CC1)C(=O)Nc1ccccc1F the results were Vif A3G -6.2%, rRNA inh HTS 5.3, AF4-AF9 inh 4.5, rRNA inh HTS OD600 13.1 and rRNA inh HTS RFP -1.9.
COC(=O)CC1C(=O)NCCN1C(=O)c1oc2c(C)c(C)ccc2c1C (configuration not stated) was read as Vif A3G -5.0%, rRNA inh HTS -4.0, AF4-AF9 inh 1.0, rRNA inh HTS OD600 -17.0 and rRNA inh HTS RFP -3.3.
CCn1c(SCC(=O)Nc2oc(C)c3c(C)n[nH]c(=O)c23)nnc1-c1ccco1 was read as Vif A3G 0.8%, rRNA inh HTS -0.2, AF4-AF9 inh -0.8, rRNA inh HTS OD600 11.0 and rRNA inh HTS RFP -6.1.
Screening COC(=O)C[C@H]1C[C@H]2c3cc(NC(=O)Nc4ccc(F)cc4)ccc3O[C@H]2[C@@H](CO)O1 returned Vif A3G -4.7%, rRNA inh HTS -1.8&-1.5, AF4-AF9 inh -1.2&-2.0, rRNA inh HTS OD600 3.8&0.7 and rRNA inh HTS RFP -0.5&-1.4.
CN1C[C@H]2CON(C)[C@H]2C[C@H]1c1cccc(N2CCOCC2)c1 was read as Vif A3G -2.9%, rRNA inh HTS 5.7, AF4-AF9 inh 0.6, rRNA inh HTS OD600 7.2 and rRNA inh HTS RFP -1.8.
Screening COc1ccc(N2CCN(CCCn3ccc(NC(=O)OCc4ccccc4)nc3=O)CC2)cc1 returned Vif A3G -1.9%, rRNA inh HTS -3.8, AF4-AF9 inh 12.3, rRNA inh HTS OD600 -5.3 and rRNA inh HTS RFP -3.5.
Screening c1ccc(CCCCc2ccncc2)cc1 returned Vif A3G -7.5%, rRNA inh HTS 6.6, AF4-AF9 inh 0.3, rRNA inh HTS OD600 3.5 and rRNA inh HTS RFP 0.9.
`CC(C)N(Cc1ccccc1)S(=O)(=O)c1ccc(-n2cccn2)cc1` gave Vif A3G -3.2%, rRNA inh HTS 1.0, AF4-AF9 inh -0.1, rRNA inh HTS OD600 7.0 and rRNA inh HTS RFP -0.7.
Screening Cc1cccc2nnc(-c3ccccc3)n12 returned Vif A3G -3.0%, rRNA inh HTS 13.6, AF4-AF9 inh -3.0, rRNA inh HTS OD600 12.6 and rRNA inh HTS RFP -1.3.
`COc1cc(/C=C2\C(=O)N(c3cccc(C(=O)O)c3)N=C2C)ccc1OCc1ccccc1` gave Vif A3G 13.5%, rRNA inh HTS 6.8, AF4-AF9 inh 8.4, rRNA inh HTS OD600 12.5 and rRNA inh HTS RFP -3.4.
Screening O=C(COC(=O)C1CC2CCCC(C1)C2=O)Nc1ccccc1 (configuration not stated) returned Vif A3G -12.4%, rRNA inh HTS 7.4, AF4-AF9 inh -5.4, rRNA inh HTS OD600 11.2 and rRNA inh HTS RFP -0.8.
Screening CCOC(=O)C1CCN(C(=O)c2ccccc2)c2scc(-c3ccccc3)c2C1=O (configuration not stated) returned Vif A3G -8.7%, rRNA inh HTS 7.2, AF4-AF9 inh -2.6, rRNA inh HTS OD600 2.3 and rRNA inh HTS RFP -1.1.
CN(C)c1ncnc2c1ncn2C1CCCCO1 (configuration not stated) was read as Vif A3G -1.6%, rRNA inh HTS 10.3, AF4-AF9 inh -1.4, rRNA inh HTS OD600 7.9 and rRNA inh HTS RFP 1.8.
For COc1cccc(CN(C)S(=O)(=O)c2c(C)noc2C)c1OC the results were Vif A3G -1.3%, rRNA inh HTS 11.8, AF4-AF9 inh -14.0, rRNA inh HTS OD600 6.0 and rRNA inh HTS RFP 1.4.
`CN(CC(=O)Nc1cccc(F)c1)C(=O)c1ccccc1-n1cnnn1` gave Vif A3G 7.9%, rRNA inh HTS 15.9, AF4-AF9 inh 4.3, rRNA inh HTS OD600 14.7 and rRNA inh HTS RFP 3.7.
Cc1cc(NC(=O)C(Cl)Cl)cc2c1OCO2 was read as Vif A3G -4.3%, rRNA inh HTS 6.8, AF4-AF9 inh 2.5, rRNA inh HTS OD600 12.2 and rRNA inh HTS RFP 1.1.
For COC1OC2COC(c3ccccc3)OC2C(OC(=O)c2ccccc2)C1OC(=O)c1ccccc1 (configuration not stated) the results were Vif A3G -3.8%, rRNA inh HTS 4.2, AF4-AF9 inh -2.1, rRNA inh HTS OD600 11.8 and rRNA inh HTS RFP 1.8.
For Nc1nc(=O)n(C2CCCO2)cc1Br (configuration not stated) the results were Vif A3G -1.8%, rRNA inh HTS 7.7, AF4-AF9 inh -5.3, rRNA inh HTS OD600 18.6 and rRNA inh HTS RFP -2.8.
`CC(C)NC(=O)N(C)C[C@H]1Oc2ncc(Br)cc2C(=O)N([C@H](C)CO)C[C@@H]1C` gave Vif A3G -6.8%, rRNA inh HTS 2.6&3.7, AF4-AF9 inh -0.9&-4.2, rRNA inh HTS OD600 9.7&12.7 and rRNA inh HTS RFP -0.6&-0.5.

Filtered by structure, the entries above with an NH in an aromatic ring.
`COCCN(C(=O)COC(=O)CSc1ccc(Cl)cc1)c1c(N)n(CC(C)C)c(=O)[nH]c1=O` gave Vif A3G -4.6%, rRNA inh HTS 5.9, AF4-AF9 inh -1.7, rRNA inh HTS OD600 9.8 and rRNA inh HTS RFP 1.5.
Cc1[nH]c(=O)[nH]c(=O)c1C=CC(=O)NC(CO)CS(=O)Cc1ccccc1 (configuration not stated) was read as Vif A3G -3.1%, rRNA inh HTS 4.3, AF4-AF9 inh -2.2, rRNA inh HTS OD600 -4.2 and rRNA inh HTS RFP 1.8.
`O=C(CCCCl)N1CCc2[nH]c3ccccc3c2C1` gave Vif A3G 5.0%, rRNA inh HTS 12.6, AF4-AF9 inh -3.1, rRNA inh HTS OD600 6.5 and rRNA inh HTS RFP -2.0.
CCn1c(SCC(=O)Nc2oc(C)c3c(C)n[nH]c(=O)c23)nnc1-c1ccco1 was read as Vif A3G 0.8%, rRNA inh HTS -0.2, AF4-AF9 inh -0.8, rRNA inh HTS OD600 11.0 and rRNA inh HTS RFP -6.1.

Assay outcomes from PubChem.
